Screens from PubChem.
Bead autofluor = counter-screen for toxin protease inhibitors: compound fluorescence. compound autofluorescence counterscreen, microsphere flow cytometry; stronger effect = higher value. fluorescence intensity (no concentration beside the values). 360,000 compounds, 3.1% hits. AID 624483;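 active = at least 3 SD above the mean of all compounds, about 16000 in these data; inconclusive = too few beads counted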;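 also: 100 nL of 1 mM stock went into each well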
Mtb hypoxia rep = Mtb hypoxia fluorescent reporter inhibition; AID 1159583; 300,000 compounds, 0.1% hits; fluorescence inhibition, % (test concentration not listed); M. tuberculosis hypoxia-regulated fluorescent reporter, fluorescence;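 active = 35 to 45% if threefold the growth effect, above 45% if 1.5-fold the growth effect; inactive = the rest, general growth blockers included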;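 also: wells of about 50 µL received 100 nL stock; 0% = vehicle wells and 100% = reference inhibitor wells; whole bacteria with a GFP reporter of the hypoxia response; strong numbers were not always called active; many hits fall short of the cut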
ugtP null kill = compounds lethal to S. aureus RN4220 ugtP deletion mutant. OD600 growth, 16 h; some inactives read as strong as hits. growth inhibition, % (test concentration not listed). 330,000 compounds, 0.54% hits;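 active = z-score under -3 and OD600 up to 0.15 on both plates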;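 also: plate controls were untreated wells for no effect and antibiotic for full effect; wells of about 80 µL received 100 nL stock; the first replicate is given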
PrP UTR inh = inhibition of PrP 5' UTR reporter expression; cell-based PrP 5' UTR mRNA reporter, plate reader; inhibition, % (no concentration beside the values); 340,000 compounds, 0.35% hits;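 active = every replicate at 50% or more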;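 also: 0 = median of the neutral control wells; tested in H4 reporter cells; numbers are from one replicate; inactives centre near -14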
BJeLR viability = BJeLR cell viability loss; BJeLR (HRASV12) viability, CellTiter-Glo ATP luminescence, 48 h; reference of the scale not given here; AID 1554; inhibition, % (test concentration not listed); 300,000 compounds, 0.17% hits;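 active = replicate mean above 50%; inconclusive = above 50% but judged a plate artefact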;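 also: 50 nL library stock added to about 25 µL; numbers are from one replicate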
Sa RN4220 lethal = S. aureus RN4220 growth inhibition. OD600, 16 h. inhibition, % (concentration not given with the values). 330,000 compounds, 0.33% hits;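 active = z-score of -3 or lower and OD600 up to 0.18 on both plates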;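 also: plate controls were untreated cells for no effect and reference antibiotic for full effect; stock transfer was 100 nL into about 80 µL; one replicate is shown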
Mtb hypoxia rep growth = second read-out of Mtb hypoxia rep, no call of its own (marks repeat the call); growth inhibition, %; measured here: M. tuberculosis growth (absorbance);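 0% = vehicle and 100% = reference antibiotic; read after six days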
Starred values were filed as active, the others as inactive; ? = inconclusive; · = no result given. Not a hit list; about 4% have a hit in one of these screens.

SMILES	Bead autofluor	Mtb hypoxia rep	Mtb hypoxia rep growth	ugtP null kill	PrP UTR inh	BJeLR viability	Sa RN4220 lethal
COC(=O)c1cccc(S(=O)(=O)N2CCCC2)c1	2380	20.0	10.9	11.5	-5.6	-1.4	3.9
CC1(C)CC(n2[nH]c(=O)c3c2NC(=O)CSC3c2ccccc2)CCO1 (stereo not drawn)	4475	·	·	-8.0	-35.5	-6.6	-6.6
COCCN(Cc1nc(-c2ccc(C(F)(F)F)cc2)no1)C(C)C	2832	8.8	3.1	13.6	-4.1	1.9	2.5
COc1ccccc1Oc1ccc(NC(=O)c2ccccc2)cc1	2655	-4.4	7.3	-2.8	-16.2	-18.1	-1.8
O=C(Nc1ccc(F)c(S(=O)(=O)N2CCOCC2)c1)C1CCCCC1	5776	-2.7	4.7	-4.6	-9.0	·	-1.3
N#Cc1cc([N+](=O)[O-])ccc1NC(=O)COC(=O)C12CC3CC(CC(C3)C1)C2	·	11.3	2.9	5.1	·	-5.5	2.9
COc1cc(OC)c(NC(=O)c2sc3ncn(CC(=O)N4CCOCC4)c(=O)c3c2C)cc1Cl	6569	18.1	9.4	1.7	-6.6	9.7	2.4
Cc1ccc(N2C(=O)CSC2c2cccs2)cc1 (stereo not drawn)	7779	0.9	7.2	2.4	-21.8	-5.9	5.2
O=C(COc1ccc(Cl)cc1)Nc1nc(-c2ccncc2)cs1	5269	9.7	9.2	4.9	-16.5	4.5	3.0
Cc1n[nH]c(C)c1Sc1ccccc1[N+](=O)[O-]	4544	-2.9	-1.7	1.2	-11.1	-1.6	-2.7
Cc1ccc(C(=O)Nc2cc(C)nn2CCC#N)cc1	3847	8.7	-14.8	1.6	-16.4	1.4	-1.1
COc1ccccc1CC(=O)Nc1ccc([N+](=O)[O-])cc1OC	8473	-8.0	-6.2	2.2	-33.9	3.4	-4.5
O=[N+]([O-])c1cc(C=NNc2nc3ccccc3[nH]2)c(O)cc1O	·	11.8	6.5	-12.5	·	·	27.7
CC(C)=CC/C=C1\CCC(C(=O)O)C(C(=O)O)C1 (stereo not drawn)	12657	2.5	3.6	-1.5	0.9	-1.3	1.7
O=C(N/N=C/c1cn(-c2ccccc2)nc1-c1cccs1)c1ccc(Cl)cc1	10975	·	·	·	-22.1	6.0	·
Cc1cccc(NS(=O)(=O)c2ccc(C(=O)NCC3(N4CCCCC4)CCCCC3)cc2)c1C	6967	2.8	9.3	1.5	8.0	2.3	-2.0
CCCCn1c(NC(=O)c2ccccc2Cl)c(C#N)c2nc3ccccc3nc21	3734	-4.9	-6.5	25.7	-21.8	5.8	44.5
CN(CC(=O)Nc1cccc(C#N)c1)Cc1ccc(Cl)cc1	3380	17.7	6.8	-2.7	6.4	3.0	1.6
CC(=O)c1cccc(N(C(=O)CNC(=O)c2ccco2)C(C(=O)NC2CCCC2)c2ccc(C)o2)c1 (stereo not drawn)	4888	3.0	4.0	-3.5	-0.4	0.2	2.6
O=C(Cc1ccc(Cl)cc1)OCC(=O)c1ccc[nH]1	3558	-2.2	-2.6	6.7	-34.6	·	10.0
CCOC(=O)c1ccc(-c2ccc(/C=C(\C#N)C(=O)NCc3cccs3)o2)cc1	2511	4.0	9.2	-9.5	-33.1	·	4.1
COc1cccc(CNC(=O)C2CCCN(c3ncnc4c3nc3n4CCCCC3)C2)c1 (stereo not drawn)	5542	1.0	3.9	4.5	-12.4	1.0	2.9
COc1ccc(NC(=O)Nc2cccc3c2O[C@H](CN(C)Cc2ccc(-c4ccccc4)cc2)[C@@H](C)CN([C@H](C)CO)C3=O)cc1	3114	7.0	1.0	1.8	-3.1	·	-9.0
CCOCCSC1=C(C#N)C(c2cccs2)C(C(C)=O)=C(C)N1 (stereo not drawn)	5003	·	·	3.3	-14.8	-14.3	0.0
COc1ccc(C(CNC(=O)c2ccc(-c3ccccc3Cl)o2)N2CCOCC2)cc1 (stereo not drawn)	?	10.6	6.1	-6.3	2.9	-15.4	0.8

More records:
SMILES	Bead autofluor	Mtb hypoxia rep	Mtb hypoxia rep growth	ugtP null kill	PrP UTR inh	BJeLR viability	Sa RN4220 lethal
CCCCN1CC[C@H]2C=CC[C@@H](C(=O)Nc3nccs3)[C@H]2C1=O	4600	·	·	·	1.0	-6.5	·
N#CC1(NC(=O)CSc2nnc(Nc3ccccc3F)s2)CCCC1	4107	12.4	10.0	2.3	-17.6	·	5.7
CCOC(=O)C1(C)C=C(Nc2ccc(OCC)cc2)C(=O)N1c1ccccc1 (stereo not drawn)	2191	-6.5	2.3	20.3	-48.5	-3.3	5.8
N#CC(c1ccccc1)c1ccc(C(=O)c2ccc(F)cc2)cc1 (stereo not drawn)	3398	5.3	-8.9	30.0	-1.7	0.5	18.6
CC(Oc1cccc(F)c1)C(=O)Nc1ccc(N2CCOCC2)cc1 (stereo not drawn)	3888	8.5	1.5	3.3	-16.2	·	9.6
Cc1cc2ccccc2n1CCNC(=O)c1ccc(S(=O)(=O)N2CCOCC2)cc1	1079	1.6	2.7	4.9	-61.4	-6.4	3.3
CCc1ccc(NC(=O)CSc2nnc(SCC(=O)Nc3ccc(CC)cc3)n2N)cc1	2484	8.2	0.7	-8.3	-13.6	-2.3	5.6
CC(C)n1c(SCC(=O)N2c3ccccc3Sc3ccccc32)nc2c1c(=O)n(C)c(=O)n2C	9329	2.3	4.2	-5.2	14.9	12.4	-3.9
COc1ccc(C/C(C)=N/Nc2nc(C)cc(=O)[nH]2)cc1	4625	·	·	·	-15.0	12.9	·
Cc1csc(NC(=O)c2cccc(S(=O)(=O)N3CCCCC3)c2)n1	6848	5.5	11.0	7.8	-0.2	-9.4	8.2
O=C1CCCN1c1ccc(S(=O)(=O)O)cc1 (tested in a mixture with another compound)	2133	1.1	-2.6	8.8	-29.2	-19.6	-0.3
C=CCNC(=O)c1cc(Cl)ccc1Cl	·	22.1	11.4	-1.1	-9.5	-7.9	1.4
Cc1nn(-c2ccccc2)c(C)c1NC(=O)COC(=O)c1ccc(O)cc1O	6514	5.2	-1.5	4.7	-3.9	5.4	1.3
CCOC(=O)c1cnc(-c2ccccc2)nc1N1CC(C)OC(C)C1 (stereo not drawn)	3365	-3.8	1.5	10.1	-19.6	-5.7	2.6
COc1ccc(C=NNC(=O)C(=O)NCC2CCCO2)cc1 (stereo not drawn)	·	3.0	-4.2	-9.7	·	·	-1.7
C=CCn1c(=C(C#N)C(=O)NCCN2CCOCC2)sc(=Cc2ccsc2)c1=O	·	0.2	8.9	5.9	·	·	16.2
Cc1ccc(-n2c(C)cc(C(=O)CSc3n[nH]c(N)n3)c2C)cc1	10948	-1.5	12.6	32.2	-25.8	13.7	4.3
Cc1ccc(SCCC(=O)N2CCC(C(N)=O)CC2)cc1	3612	·	·	8.3	-18.1	0.9	7.2
Cc1cc(C)c(CN2CCN(C(=O)Cn3cnc4c(OCc5ccccc5)ncnc43)CC2)c(C)c1	3117	-6.4	5.2	-18.0	4.2	·	-7.6
O=S(=O)(N=C(c1ccccc1Cl)N1CCOCC1)c1ccccc1	·	-6.5	1.0	-1.9	·	·	0.7
N#Cc1cccc(NC(=O)CN2NS(=O)(=O)c3ccccc3C2=O)c1	3402	2.1	2.8	0.3	-13.3	16.6	2.4
Cn1ncc2c(N3CCN(c4ccc(Cl)c(Cl)c4)CC3)ncnc21	4188	10.5	10.3	4.6	-16.7	24.1	-9.4
CC(C)[C@H](NC(=O)c1ccco1)C(=O)OCC(=O)Nc1ccc(F)cc1	3187	12.2	7.7	5.0	-24.4	-10.4	3.0
O=C(NN=Cc1ccc(O)cc1)c1nc(-c2ccccc2)n(-c2ccccc2)n1	·	-1.8	9.2	-1.5	·	·	2.1
O=C(NN=Cc1cn(-c2ccccc2)nc1-c1cc2ccccc2o1)c1cccnc1	·	-5.0	-2.3	38.1	·	·	3.8

More records
SMILES	Bead autofluor	Mtb hypoxia rep	Mtb hypoxia rep growth	ugtP null kill	PrP UTR inh	BJeLR viability	Sa RN4220 lethal
Cn1c(N)c(C(=O)COC(=O)Cc2ccc(Cl)cc2)c(=O)n(C)c1=O	?	-6.5	-4.4	3.9	-9.0	·	4.6
CCOC(=O)N1CC(C)N(C(=S)Nc2ccccc2)CC1C (stereo not drawn)	3535	11.3	7.5	-2.0	-19.4	·	0.4
CCOC(=O)c1cc2c(c(-c3ccccc3)n1)[C@H](CCO)N(S(=O)(=O)C(C)(C)C)C2	3797	-5.5	2.4	-1.7	-1.3	·	2.9
NS(=O)(=O)c1cccc(NC(=O)CCC(=O)c2cccs2)c1	3902	-0.2	-3.5	0.9	-14.9	-9.7	2.1
Cc1cc(C)nc(SCC(=O)Nc2nccs2)n1	3565	-3.8	10.6	8.3	-8.0	-3.0	1.5
Cc1ccc(Cn2nc(C(=O)Nc3ccc(Br)cc3)cc2C)cc1	3229	-0.5	2.3	2.1	-23.0	10.1	2.4
Cc1ccc2nc(SCC(=O)Nc3ccc4c(c3)CCC4)[nH]c2c1	2399	-2.6	0.0	-18.7	-0.7	-3.7	-1.1
Cc1nc2ccccn2c1/C(O)=C1\C(=O)C(=O)N(CCN2CCOCC2)C1c1cccnc1 (stereo not drawn)	3208	·	·	·	-4.0	4.2	·
O=C(NCCc1ccccc1)C1CCC(CNS(=O)(=O)c2cccs2)CC1 (stereo not drawn)	4703	9.9	1.5	7.1	-17.2	4.7	3.9
O=C(CSc1nnc(CNC(=O)c2c(F)cccc2Cl)o1)NC1CCCC1	5255	5.4	9.0	9.2	-2.5	-2.9	4.5
CC1(C)NC(=O)N(CC(=O)N2CCC(Cc3ccccc3)CC2)C1=O	5136	6.7	6.4	1.2	7.6	-0.6	0.2
O=C(Cn1c2ccccc2c2nc3n(c(=O)c21)CCS3)N1CCCC1	5221	8.3	6.6	1.1	4.8	-4.6	-0.2
Cc1cc([N+](=O)[O-])cc(C)c1OCC(=O)NN=Cc1ccc(OC(=O)c2ccccc2)cc1	·	-0.2	-1.7	3.5	·	·	-1.0
O=C(COC(=O)c1cc(Br)ccc1O)NNC(=O)c1cccs1	4406	2.4	-5.5	3.5	-22.6	·	5.7
Fc1ccc(-n2c(-c3ccco3)n[nH]c2=S)cc1	3594	15.2	14.7	-0.6	-3.3	-1.1	2.4
Cc1cc(=O)[nH]c(SCC(=O)NNC(=O)Cc2ccccc2)n1	3274	·	·	·	-13.1	5.4	·
CC(C)CCn1c(COc2ccccc2)nn(CCC#N)c1=S	3155	4.9	2.3	2.6	-15.8	-0.7	2.3
CCN(Cc1ccccc1)Cc1ccc(OCc2ccccc2)cc1	3755	4.4	10.9	27.1	-34.9	-18.9	-0.1
Cc1c2cnn(CC(=O)N3CCC4(CC3)OCCO4)c(=O)c2c(C)n1Cc1ccc(F)cc1	2494	-1.2	1.0	-17.7	-4.0	2.7	7.0
Cc1ccc(OCCCCN(C)Cc2ccccc2)c(Br)c1	2151	7.5	19.6	-18.0	-10.5	5.8	-0.3
CN(C)Cc1n[nH]c(=O)c2ccccc12	2403	-1.4	7.8	6.3	-6.1	-0.8	4.6
O=C(NCCCc1ccccc1)Nc1ccccc1	10050	2.0	10.5	-9.6	-8.2	11.8	1.1
O=C(O)c1ccccc1N=Nc1c(O)[nH]c(=O)[nH]c1=O	5400	6.8	-3.1	1.8	-31.6	3.7	5.2
CCOC(=O)C1CCCN(c2c(NCCCN(C)c3ccccc3)c(=O)c2=O)C1 (stereo not drawn)	4336	7.9	3.8	6.9	-17.9	-3.7	0.6
FC(F)Sc1ccc(NC2=NCCCCC2)cc1	3844	6.1	-2.3	1.2	-39.7	5.8	2.3
COCc1nnc(NC(=O)CSc2ccccc2)s1	22373*	4.2	10.2	3.4	-9.1	·	0.7

Single records, from the list above. Order of screens: Bead autofluor	Mtb hypoxia rep	Mtb hypoxia rep growth	ugtP null kill	PrP UTR inh	BJeLR viability	Sa RN4220 lethal
CCOC(=O)C1CCCN(c2c(NCCCN(C)c3ccccc3)c(=O)c2=O)C1 (stereo not drawn) in the list: 4336	7.9	3.8	6.9	-17.9	-3.7	0.6
Cc1cc(C)nc(SCC(=O)Nc2nccs2)n1 in the list: 3565	-3.8	10.6	8.3	-8.0	-3.0	1.5
Cc1ccc2nc(SCC(=O)Nc3ccc4c(c3)CCC4)[nH]c2c1 in the list: 2399	-2.6	0.0	-18.7	-0.7	-3.7	-1.1
